KCNQ2 pot: potentiators of rat KCNQ2 potassium channel; Potassium voltage-gated channel subfamily KQT member 2 (Rattus norvegicus), O88943; CHO-K1 KCNQ2, FluxOR thallium flux fluorescence; hits give high values; B-score at 10 µM; 310,000 tested, 0.54% active; AID 2239, 2010;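 active means fluorescence ratio B-score at least 3 SD of library B-scores, with initial fluorescence B-score within 3 SD, cut at about 5.3 in these data; same plate scores as AID 2156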;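 further: B-score of peak minus minimum over baseline fluorescence ratio after K+ and Tl+ stimulus; positive B-score means potentiation of KCNQ2 with more thallium influx and brighter signal; only the inactives scoring about 0 or higher are listed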
Target sequence (O88943 whole entry, looked up): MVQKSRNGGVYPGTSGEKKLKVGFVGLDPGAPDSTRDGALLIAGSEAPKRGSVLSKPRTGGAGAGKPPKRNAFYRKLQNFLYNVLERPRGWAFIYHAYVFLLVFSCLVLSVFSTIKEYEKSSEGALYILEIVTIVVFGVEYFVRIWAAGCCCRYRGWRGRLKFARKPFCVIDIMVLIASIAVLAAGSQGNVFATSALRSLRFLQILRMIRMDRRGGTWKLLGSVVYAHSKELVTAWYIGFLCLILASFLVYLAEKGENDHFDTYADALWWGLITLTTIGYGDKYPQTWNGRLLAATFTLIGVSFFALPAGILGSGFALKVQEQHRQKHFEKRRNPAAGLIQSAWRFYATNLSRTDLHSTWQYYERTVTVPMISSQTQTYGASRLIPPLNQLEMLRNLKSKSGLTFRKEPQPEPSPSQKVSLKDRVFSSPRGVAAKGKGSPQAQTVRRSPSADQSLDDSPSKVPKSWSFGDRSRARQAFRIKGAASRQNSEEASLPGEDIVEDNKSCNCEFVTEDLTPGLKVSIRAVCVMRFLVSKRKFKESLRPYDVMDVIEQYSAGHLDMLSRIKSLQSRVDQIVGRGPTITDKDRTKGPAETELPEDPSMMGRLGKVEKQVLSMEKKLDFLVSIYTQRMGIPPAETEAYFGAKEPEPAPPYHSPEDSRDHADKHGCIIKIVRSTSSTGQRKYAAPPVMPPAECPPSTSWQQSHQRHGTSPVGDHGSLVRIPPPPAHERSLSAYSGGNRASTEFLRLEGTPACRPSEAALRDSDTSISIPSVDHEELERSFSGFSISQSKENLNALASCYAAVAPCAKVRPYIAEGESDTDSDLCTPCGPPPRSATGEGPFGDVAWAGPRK
KCNQ2 pot baseline: further read-out of KCNQ2 pot, marked with its call; B-score; compound at 10 µM; measured here: initial fluorescence intensity artifact check;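 brightness before thallium and not channel activity; 0 = typical well and far values either way flag optical interference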
Numbers without * were called inactive.

mol | KCNQ2 pot | KCNQ2 pot baseline
O=C1C2C(c3cccc(/C=C/c4ccccc4)c3)CC=CC2C(c2ccc3ccccc3c2)N1Cc1ccccc1 (stereo not given) | 1.6 | 1.2
CNC(=O)C(=O)Nc1cc2c3c(c1)CCC(=O)N3CCC2 | 1.6 | 0.46
CCCCOc1ccc(C(=O)Nc2ccncc2)cc1 | 0.65 | 1.2
CC(=O)c1ccc(N2CCN(c3ncc(C(F)(F)F)cc3Cl)CC2)cc1 | 2.2 | 1.7
CCc1nnc(NC(=O)[C@@H]2CCCN2S(=O)(=O)c2ccc3c(c2)OCCO3)s1 | 0.04 | -0.08
O=C(NCCCN1CCCC1=O)c1cc(COc2ccc(F)cc2F)on1 | 1.6 | 0.53
CC(C)CC(=O)c1c[nH]c(C(=O)NCC2CCCO2)c1 (stereo not given) | 1.4 | -0.42
O=c1c2ccccc2[nH]c2ccc(F)cc12 | 0.42 | -0.93
CCN(CC)c1ccc2c(c1)CCCN2 | 1.8 | -0.91
Cc1nnc(NC(=O)CSCc2ccccc2)s1 | 0.17 | -0.02
CC(Oc1ccc(Br)cc1Cl)C(=O)Nc1ccncc1 (stereo not given) | 1.2 | -0.42
COc1ccc(CCN(C(=O)/C=C/C(=O)O)C2CC(=O)N(c3ccccc3)C2=O)cc1 (stereo not given) | 1 | -1.1
CCc1nnc(NC(=O)CSc2nnc(-c3ccc(NS(=O)(=O)c4ccccc4)cc3)o2)s1 | 1.9 | -0.09
CC1(C)CC(=O)C2=C(C1)NC1=C(C(=O)c3ccccc31)C2c1ccc(O)cc1 (stereo not given) | 1.5 | -2
O=C1NC(C(=O)O)=CC(c2ccc([N+](=O)[O-])cc2)N1 (stereo not given) | 0.16 | 0.25
CCC(C)(C)n1nnnc1CN1CCC(c2nc3ccc(C)cc3[nH]2)CC1 | 1.5 | -2.6
CCOC(=O)Cc1cc(=O)[nH]c(Nc2nc3ccccc3o2)n1 | 1.5 | -0.02
CCOC(=O)c1c(C)n(CC(O)c2ccccc2)c2ccc(O)cc12 (stereo not given) | 0.45 | 0.23
CCn1ncc(C2=NOC(C(=O)N3CCC(C(N)=O)CC3)C2)c1C (stereo not given) | 1.7 | 0.97
Cc1cccc(C(=O)NNC(=O)CN2C(=O)c3ccccc3C2=O)c1 | 2 | 0.65
C/C(=N\NC(=O)CC#N)c1cc2ccccc2oc1=O | 0.01 | 0.05
CC(C)c1nc(SCC(=O)Nc2cccc(C(F)(F)F)c2)c2c(=O)n(C)c(=O)n(C)c2n1 | 1.8 | -0.12
Cc1ccsc1C1CC(=O)Nc2ccccc2S1 (stereo not given) | 3.6 | 0.07
O=C(Nc1ccc(Cl)cc1)Nc1nnc(-c2ccncc2)s1 | 1.5 | 0.92
CN(C)c1ccc(C(=O)OCC(=O)NCCNC(=O)COC(=O)c2ccc(N(C)C)cc2)cc1 | 0.33 | 1.1
Cc1cc(C)n(-c2ccc(C(=O)Nc3ccc(C)c(S(=O)(=O)N(C)C)c3)cc2)n1 | 0.19 | 0.58
CC(C)c1ccccc1NC(=O)c1ccco1 | 0.32 | -0.85
COc1ccc(NC(=O)CN2CCN(C(=O)c3ccco3)CC2)c(OC)c1 | 1.7 | -0.85
O=C(N/N=C/c1ccco1)Nc1ccccc1 | 2 | 0.27
CCn1c2ccc(F)cc2c2nc3ccccc3nc21 | 0.83 | -3.6
COc1cc(C(=O)NCC(c2cccs2)N2CCOCC2)cc(OC)c1OC (stereo not given) | 1.4 | 0.8
O=C(O)C=C(Br)Br | 0.12 | -0.55
CN(C)/C=C(\C#N)C(=O)Nc1ccccc1 | 0.01 | -0.2
CCOC(=O)N1CCN(C(=O)Cc2ccc(-n3c(=S)[nH]c4ccccc4c3=O)cc2)CC1 | 0.04 | 0.02
Cc1cc(=O)[nH]c(Cc2ccc(OC(C)C)cc2)n1 | 0.2 | 0.27
CSc1ccc(S(=O)(=O)Nc2c(C)cccc2C)cc1 | 0.57 | 0.4
Cc1cc(C)c(S(=O)(=O)c2ccccc2C)c(OCCO)n1 | 0.12 | 0.17
O=C(CNC(=O)c1ccccc1F)NC1=NCCS1 | 0.31 | 0.01
Cc1c(C(=O)NCCCN2CCOCC2)oc2c1C1(CCC2)SCCS1 | 1.2 | 0.77
CC(C)[C@H](NC(=O)[C@H](Cc1ccccc1)n1c(=O)[nH]c2ccccc2c1=O)C(=O)N1CCC[C@@H]1C(=O)O | 0.01 | -1.8
CN1C(=O)c2ccc(C(=O)NCc3ccc4c(c3)OCO4)cc2C1=O | 2.9 | 1.6
N/C(=N\c1nc(C(F)(F)F)cc(=O)[nH]1)Nc1ccc(Cl)cc1 | 1.7 | -0.79
COc1ccc(-c2nc(CS(=O)CC(=O)NCCCN3CCCC(C)C3)c(C)o2)cc1OC (stereo not given) | 0.02 | 0.29
CCN1CCN(c2ccc(S(=O)(=O)N3CCCCC3)cc2NC(=O)c2cccc(C)c2)CC1 | 0.04 | 0.33
CCOC(=O)N1CCN(C(=O)C(=O)NN)CC1 | 0.74 | 0.32
Cc1nn(C)c(Cl)c1NC(=O)OCc1ccc(F)cc1 | 3.4 | -0.41
Cc1ccc(CCN2CC(C(=O)NCCCOC(C)C)CC2=O)cc1 (stereo not given) | 1.8 | 0.61
CC(NC(=O)CNC(=S)N(Cc1ccccc1)Cc1cccnc1)c1ccccc1 (stereo not given) | 1.4 | -0.62
O=C(Oc1ccc(-c2ccccc2)cc1)N1CCOCC1 | 1.1 | -0.18
O=C(NC(=S)Nc1ccc(S(=O)(=O)N2CCCC2)cc1)c1cccs1 | 1.4 | -0.05

Profiles, looked up by structure. Screens in order: KCNQ2 pot	KCNQ2 pot baseline
CC(NC(=O)CNC(=S)N(Cc1ccccc1)Cc1cccnc1)c1ccccc1 (stereo not given) across the screens: 1.4	-0.62
Cc1ccc(CCN2CC(C(=O)NCCCOC(C)C)CC2=O)cc1 (stereo not given) across the screens: 1.8	0.61
CN1C(=O)c2ccc(C(=O)NCc3ccc4c(c3)OCO4)cc2C1=O across the screens: 2.9	1.6
Cc1nn(C)c(Cl)c1NC(=O)OCc1ccc(F)cc1 across the screens: 3.4	-0.41
N/C(=N\c1nc(C(F)(F)F)cc(=O)[nH]1)Nc1ccc(Cl)cc1 across the screens: 1.7	-0.79

More records follow:
mol | KCNQ2 pot | KCNQ2 pot baseline
COc1ccc(C(=O)NCC(C)(C)CNC(=O)c2ccc(OC)cc2)cc1 | 2.1 | -0.49
CN(C1CC(C)(C)NC(C)(C)C1)S(=O)(=O)CC12CCC(CC1=O)C2(C)C (stereo not given) | 0.34 | 0.22
CCCCCN(C(=O)CCC(=O)OCC(=O)N1C(C)CCCC1C)c1c(N)n(CCCC)c(=O)[nH]c1=O (stereo not given) | 0.22 | 1.7
CC1(C)NC(=O)N(CC(=O)OCC(=O)Nc2cccc(F)c2)C1=O | 0.41 | 1.2
NC(=O)c1nsc(C(=O)N(c2ccccc2)C(C(=O)NC2CCCC2)c2cccs2)c1N (stereo not given) | 0.62 | -0.31
COc1ccc(S(=O)(=O)Nc2c(C)n(C)n(-c3ccccc3)c2=O)c(Cl)c1Cl | 0.76 | -1.5
COc1cccc(N(C(=O)c2cnccn2)C(C(=O)NC2CCCCC2)c2ccc(Cl)cc2)c1 (stereo not given) | 0.02 | 0.06
COc1ccc(C(=O)C[n+]2ccc3c(c2)nc(-c2ccccc2)n3C)cc1 | 0.08 | 0.72
O=C(N/N=C/c1cccnc1)c1ccc(Cn2cc([N+](=O)[O-])cn2)o1 | 1.4 | -0.1
CC1CCCCC1NC(=O)Cc1ccc(S(=O)(=O)N2CCOCC2)s1 (stereo not given) | 2.3 | -0.07
COC(=O)CCC(=O)Nc1cccc(C(=O)Nc2cccc(Cl)c2)c1 | 0.21 | 0.23
NC(=O)C1(NC(=O)[C@@H]2CC3(CC(c4cccc(NC(=O)[C@@H]5CCC(=O)N5)c4)=NO3)CN2C(=O)Cc2ccc(Cl)cc2)CC1 (stereo not given in full) | 0.09 | -0.08
O=C(CN1CCN(c2ccccn2)CC1)NCc1cccs1 | 0.01 | 2
C/[N+]([O-])=C/c1c(OCc2ccccc2)ccc2ccccc12 | 2.2 | -0.77
Cc1ccc(-c2ccc(CCC(=O)O)n2NC(=O)c2ccc([N+](=O)[O-])cc2)cc1 | 1 | 0.32
CCCc1cc(=O)n2nc(N3CCC(C(=O)N4CCN(c5cccc(OC)c5)CC4)CC3)sc2n1 | 0.01 | 0
Cc1ccc(C)c(N(C(=O)c2csnn2)C(C(=O)NC2CCCC2)c2ccncc2)c1 (stereo not given) | 0.74 | 0.13
Cc1cc(N2CCCC(C(=O)Nc3cccc4ccccc34)C2)n2ncnc2n1 (stereo not given) | 1.4 | -1.4
O=C(Nc1ccc(S(=O)(=O)N2CCOCC2)cc1)c1cccs1 | 0.08 | 0.03
COc1ccc(C[C@H]2CN3C(=NC[C@@H]3C)N2CCNC(=O)CCC2CCCCC2)cc1 | 1.2 | 0

Next section:
Results follow in this order: KCNQ2 pot, KCNQ2 pot baseline
Cc1ccc(SCc2ccc(C(=O)Nc3cccnc3)cc2)cc1
→ 3.9, -0.41
Cn1cc(C(=O)NCc2ccc(F)cc2)cn1
→ 0.44, 1.9
C/C(=N\N=C(N)N)c1ccc(Cl)cc1Cl
→ 0.22, 0.21
CCN(CC)c1ccc(NC(=O)c2cccnc2)c(C)c1
→ 1.8, 0.98
O=S(=O)(NC1CCCCC1)c1ccc(S(=O)(=O)N2CCN3CCCC3C2)cc1 (stereo not given)
→ 0.15, -1.2
Cc1nc(N)sc1C(=O)N/N=C/c1ccc([N+](=O)[O-])cc1
→ 0.21, -0.69
CCOC(=O)/C=C/c1ccc2oc3ccccc3c(=O)c2c1
→ 0.47, 1.4
CCCCC1=NN(C(=O)c2cocc2C)C(O)(C(F)(F)F)C1 (stereo not given)
→ 0.92, 1.6
O=C(c1ccc2ccccc2c1)C1CCCN(C(=O)c2cccnc2)C1 (stereo not given)
→ 0.75, -0.13
O=C(OCc1ccccn1)c1ccc(COc2ccccc2Cl)o1
→ 0.36, -2.9
CC1Sc2ccc(S(=O)(=O)CCC(=O)N3CCN(c4ccccc4)CC3)cc2NC1=O (stereo not given)
→ 3.1, -1.3
Nc1nc(SCC(=O)NCc2ccco2)[nH]c(=O)c1-c1ccccc1
→ 0.59, -0.35
CCS(=O)(=O)N1CCN(Cc2ccc([N+](=O)[O-])cc2)CC1
→ 0.66, 1.6
COc1ccc(C2(C(=O)NCCN3CCOCC3)CCOCC2)cc1
→ 1.4, 1.3
CCOC(=O)c1cnc2c(C#N)c(C)nn2c1C
→ 0.02, 0.49
CC(C)(C)OC(=O)CNC(=O)c1[nH]cnc1C(=O)NCCCCCN
→ 0.35, 1
CC1CCN(C(=O)C2CCCN2S(=O)(=O)c2ccc(Cl)cc2)CC1 (stereo not given)
→ 0.23, -0.98
COc1ccc(-c2ccc(CCC(=O)O)n2NC(=O)c2ccc(O)cc2)cc1
→ 1.3, -0.68
Cc1cccc(OCCC(=O)NCC(c2ccccc2)N(C)C)c1 (stereo not given)
→ 0.3, 0.86
Cc1cc(NC(=O)COC(=O)c2ccc(S(=O)(=O)C(F)F)cc2)n(-c2ccccc2)n1
→ 1.2, -0.83
O=C(C(c1ccccc1)c1ccccc1)N1CCN(c2ccccn2)CC1
→ 0.23, 0.4
O=C(O)/C=C\C(=O)Nc1ccc(N2CCN(c3ccc(Cl)cc3)CC2)cc1
→ 2.1, -1.6
CN(C)c1cnn(-c2ccccc2)c(=O)c1Cl
→ 0.9, 0.21
Cc1ccc(CNC(=O)CS(=O)Cc2nc(-c3ccccc3Cl)oc2C)cc1 (stereo not given)
→ 3.3, 0.99
O=C(NNC(=S)Nc1ccc(Cl)cc1Cl)C1CC1
→ 1.4, -1.4
COc1ccc(N2CCN(C(=O)c3nc4nc(C)cc(C)n4n3)CC2)cc1
→ 0.77, 2.1
CC(=O)N/C(=C\c1ccccc1)C(=O)Nc1ccc(O)cc1
→ 0.27, 2.9
Cc1cc(S(=O)(=O)N2CCOCC2)ccc1OCC(=O)NCc1ccccn1
→ 0.73, -0.68
COCCOC(=O)c1[nH]c2c(c1C)C(=O)CC(c1cc(OC)c(OC)c(OC)c1)C2 (stereo not given)
→ 2, 1
C[C@H](NC(=O)c1nc[nH]c1C(=O)N[C@@H](C)C(=O)OC(C)(C)C)C(=O)OC(C)(C)C
→ 0.56, -0.54
CN(CC(=O)N1CCN(c2ccccn2)CC1)S(=O)(=O)c1ccc(Br)cc1
→ 0.66, -0.9
CC(NCc1ccc(N(C)C)cc1)C1CC2CCC1C2 (stereo not given)
→ 0.51, 0.27
COCCNC(=O)c1sc2ncn(CC(=O)Nc3ccc(C)c(Cl)c3)c(=O)c2c1C
→ 2, -1.5
O=C(NCCCc1ccncc1)C1CCC(=O)N(CCc2cccc(F)c2)C1 (stereo not given)
→ 0.88, 1.7
CCOc1ccccc1NC(=O)COn1nnc2ccccc21
→ 1.4, 0.57
Cc1ccc(S(=O)(=O)NC(=O)Nc2ccc(Cl)cn2)cc1
→ 0.68, -0.06
Cc1ccc(S(=O)(=O)Nc2ccc(C(=O)OCC(=O)N(CCC#N)c3ccccc3)cc2)cc1C
→ 0.08, 1.4
CCCCC(=O)NCCc1cc2ccc(OC)cc2[nH]c1=O
→ 0.36, 0.18
Cc1nnc2n1N=CC=C(C(C)(C)C)S2
→ 0.21, -1.3

Screening results (PubChem BioAssay)

The list is partial; rates above refer to the full screens.
